Compound activity (PubChem)
Env fusion inh – blocks HIV Env-driven cell-cell fusion | inhibition, % at 12.3 µM | AID 651610 | HeLa-JRFL Env/CEM21 cell fusion, luciferase | hit rate 1.1% among 360,000;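 active = mean replicate inhibition score of at least 50 and every replicate individually at or above 50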;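 also: 0% = plate neutral controls and 100% = maraviroc near 300 nM; one replicate is shown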
Rce1 inh – inhibitors of yeast Ras-converting enzyme | calls only | hit rate 0.27% among 290,000 | yeast membranes, quenched prenylated peptide cleavage fluorescence;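 active = fall in fluorescence gain of 50% or more versus controls, with final raw signal at or below 3038400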;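 also: plate controls were neutral control wells for no effect and wells lacking membranes for full effect; tested at 10 µM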
Target sequence (Q03530 whole entry, looked up): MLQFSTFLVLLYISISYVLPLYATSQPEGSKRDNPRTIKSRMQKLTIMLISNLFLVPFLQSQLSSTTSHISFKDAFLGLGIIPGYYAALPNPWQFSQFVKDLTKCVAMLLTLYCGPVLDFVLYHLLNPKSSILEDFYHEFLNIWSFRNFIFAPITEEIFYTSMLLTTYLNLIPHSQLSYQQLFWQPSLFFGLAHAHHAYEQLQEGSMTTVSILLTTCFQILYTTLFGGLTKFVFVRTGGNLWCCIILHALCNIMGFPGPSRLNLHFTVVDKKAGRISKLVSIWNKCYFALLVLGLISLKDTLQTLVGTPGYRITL
UUG fidelity – yeast start codon fidelity modulation; AID 602363; activity score, % at 18.7 µM; S. cerevisiae UUG-firefly luciferase reporter, luminescence/redox ratio; hit rate 0.13% among 350,000;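 active = replicate mean at a twofold rise or more, about +100% in these data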;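 also: firefly luciferase made from a UUG start codon reports start codon fidelity; reporter light over untreated wells divided by growth signal over untreated wells; some hits fall short of that in this replicate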
eIF4H inh – inhibitors of RNA binding by human eIF4H; Q15056; eIF4H fluorescence polarization binding assay; inhibition, % at 35 µM; hit rate 0.94% among 290,000;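 active = 50% or more with normal probe brightness, or confirmed in later tests; about a fifth of its hits are not listed in these tables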;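 also: calls also rest on retests at 20 µM and on dose response follow-up; 0% = protein and probe with vehicle and 100% = probe without protein; strong numbers were not always called active; many hits fall short of the cut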
MT1-MMP act inh – blocks activation of human MT1-MMP; GFP/RFP ratio change, % at 20 µM; P50281; HT1080 RFP-PRO-GFP cells, GFP/RFP ratio fluorescence, overnight; percent of plate control window, DMSO zero; hit rate 0.061% among 360,000;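 active = GFP/RFP ratio change of at least 30% with cell ATP level not reduced by more than half and red fluorescence within 50% of control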; also: strong numbers were not always called active
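Assay system: RFP-PRO-GFP reporter HT1080 cells; read-out basis: GFP/RFP fluorescence ratio; benchmarks: DMSO wells and RFP-L50D-GFP cells; doses: 20 µM single dose, 1% DMSO; schedule: overnight cell settling, then overnight compound exposure, 37 °C, 5% CO2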
PABP FP inh – blocks human PABP binding to poly(A) RNA. P11940. inhibition, % at 35 µM. hit rate 1% among 290,000. fluorescence polarization;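 active = 50% or more with normal probe brightness, or confirmed in later tests; about a fifth of its hits are not listed in these tables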;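 also: calls also rest on retests at 20 µM and on dose response follow-up; controls were probe without protein and protein plus probe with vehicle; some compounds called inactive have numbers as strong as hits; many hits fall short of the cut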
Target sequence (P11940 whole entry, looked up): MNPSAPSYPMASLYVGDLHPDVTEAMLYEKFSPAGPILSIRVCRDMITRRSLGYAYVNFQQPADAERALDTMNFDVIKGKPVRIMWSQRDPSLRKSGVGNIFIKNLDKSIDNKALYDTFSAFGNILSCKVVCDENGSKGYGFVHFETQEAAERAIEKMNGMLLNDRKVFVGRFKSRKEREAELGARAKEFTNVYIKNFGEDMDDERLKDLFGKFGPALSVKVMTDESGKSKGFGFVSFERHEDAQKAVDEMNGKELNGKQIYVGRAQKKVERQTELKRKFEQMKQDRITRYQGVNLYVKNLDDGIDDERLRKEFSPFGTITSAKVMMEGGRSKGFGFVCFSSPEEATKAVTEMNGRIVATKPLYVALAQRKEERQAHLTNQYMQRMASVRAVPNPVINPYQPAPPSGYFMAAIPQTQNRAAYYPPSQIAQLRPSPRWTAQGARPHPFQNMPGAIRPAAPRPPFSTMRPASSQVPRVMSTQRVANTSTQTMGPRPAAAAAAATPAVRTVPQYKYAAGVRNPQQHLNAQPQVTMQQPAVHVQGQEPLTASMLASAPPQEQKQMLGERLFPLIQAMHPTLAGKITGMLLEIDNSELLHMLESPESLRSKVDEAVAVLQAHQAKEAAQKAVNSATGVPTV
CSC inhib – blocks cancer stem cells; cancer stem cell-like cells viability, luminescence; inhibition, % at 7.5 µM; hit rate 1.1% among 300,000; AID 2717;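 active = mean at 75% or more and at least half the replicates too; tested in HMLE shEcad cells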;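 also: 0% = median of negative and 100% = median of positive control wells; the first replicate is given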
eIF4H inh retest – second read-out of eIF4H inh, no call of its own (marks repeat the call); inhibition, %; compound at 20 µM; confirmation average;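 mean of two retest wells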
PABP FP inh retest – also measured in PABP FP inh; calls as there; inhibition, %; compound at 20 µM; confirmation repeats;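 mean of two retest wells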
MT1-MMP act inh RFP – recorded beside MT1-MMP act inh, whose call it bears; RFP signal change, %; measured here: RFP expression control read;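 0 = vehicle wells; hits needed this value within 50% of zero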
* marks the source's active call; other numbers are inactive results; i = inactive; x = not tested or not shown.

SMILES	Env fusion inh	Rce1 inh	UUG fidelity	eIF4H inh	MT1-MMP act inh	MT1-MMP act inh RFP	PABP FP inh	CSC inhib	others
CC(C)(O)C#Cc1ccc(CN2CCN(C3CCCCC3)C(CCO)C2)cc1 (configuration not stated)	-48	x	x	-6	-3	0	-12	8
CCn1nc(C)c(CN2CCC(C(=O)Nc3cccc(-c4cccc(F)c4)c3)CC2)c1C	-2	i	-13	-4	0	-2	-3	24
CCCCN(CCCC)C1=Nc2ccccc2N/C1=C(/C#N)C(=O)OCC	x	i	x	29	-25	-12	8	-9
Cc1ccc(NS(=O)(=O)c2cccc(C(=O)N3CCCC(C)C3)c2)cc1 (configuration not stated)	-1	i	13	x	0	-5	x	25
COc1cc2c(cc1OC)CN(C(=S)NC(=O)c1ccccc1)CC2	-9	i	x	1	6	3	-2	8
CCN(CC(=O)NCc1cccs1)C(=O)c1cc(S(=O)(=O)N2CCCCC2)ccc1Cl	-9	i	-31	x	0	-4	x	-13
Cn1c(Cc2ccccc2)nnc1SCC(=O)Nc1cccc(S(=O)(=O)NC2=NCCCCC2)c1	15	i	-7	1	-1	-2	-4	0
Nc1n[nH]c(CO)n1	3	i	14	-7	4	6	8	1
CCn1cc(/C=C(\NC(=O)c2ccccc2F)C(=O)N2CCN(C)CC2)c2ccccc21	3	x	7	x	4	-2	x	x
CC1=NN(C(C#N)c2ccccc2)C(C)(C)C1 (configuration not stated)	5	i	x	9	1	2	-4	-8
COc1ccccc1CCNS(=O)(=O)c1c(C)n(C)c(=O)n(C)c1=O	-58	i	4	-5	13	-1	7	-9
Cc1cccc(COCC(CC(C)C)N2CCN(C(=O)c3ccc(C(C)(C)C)cc3)CCC2=O)c1 (configuration not stated)	60*	i	10	-2	-10	-12	9	9
O=C(c1noc2c1CCc1ccccc1-2)N1CCCc2ccccc21	x	i	x	-2	-12	-10	-3	-4
CCOC(=O)c1[nH]c(C)c(C(=O)NCCCOC(C)C)c1C	x	i	-8	-2	3	5	-2	0
Cc1c(NC(=O)Nc2ccccc2[N+](=O)[O-])c(=O)n(-c2ccccc2)n1C	2	i	-9	3	-3	-1	-3	-7
CC(C)(C(N)=O)c1ccccc1	-5	i	x	-8	3	6	1	-12
COc1ccccc1C(=O)N/C(=C\c1cn(C)c2ccccc12)C(=O)N1CCOCC1	7	i	-8	-6	-3	-1	-2	-18
O=C(/C=C/c1ccc([N+](=O)[O-])s1)N1CCCC1	-38	i	x	5	-2	-5	2	14
CCOC(=O)N1CCN(c2ccc(C(=O)c3ccccc3)cc2F)CC1	x	i	12	-2	3	-9	-5	22
COC(=O)N1N=C(c2ccc(Br)cc2)CC1(O)C(F)(F)F (configuration not stated)	-55	i	-19	1	-2	-1	5	13
COC(=O)CCC(C)N1CCC(Oc2ccc(C(=O)NCc3ccccn3)cc2)CC1 (configuration not stated)	-12	i	x	8	1	-2	12	x
COc1cc(C=O)ccc1OCc1cn(CC(=O)c2ccc(O)cc2)nn1	0	x	6	x	-1	4	x	x
CCSc1ccccc1C(=O)n1nnc2ccccc21	x	x	x	-4	15	5	-3	24
Cc1cc(COc2ccccc2OCc2cc(C)no2)on1	-36	i	-18	5	1	-1	9	-7
O=C(N/N=C/c1ccccn1)c1cccnc1	9	i	-42	2	2	5	4	2
Nc1ccc(C(=O)N/N=C/c2cn(Cc3ccccc3)c3ccccc23)cc1	13	i	12	2	1	-1	-7	3
CCOC(=O)C1=C(C)NC(C)=C(C(=O)OCC)C1c1cccs1	x	i	x	-1	1	-4	-6	14
CCCCOC(=O)/C(=C/C=C/c1ccccc1)NC(=O)c1ccccc1	-22	i	-4	-6	-3	-7	14	6
Cc1cccc(-c2nnc(SCc3cc(=O)[nH]c4ccccc34)n2C)c1	-13	i	-21	12	5	5	5	7
CC1(c2ccccc2)NC(=O)N(CCOc2ccccc2)C1=O (configuration not stated)	-40	i	-8	-7	-4	1	3	-7
O=C(CSc1n[nH]c(=O)n1Cc1ccco1)Nc1ccccc1Cl	18	i	x	-3	-1	2	9	-11
CS(=O)(=O)c1ccc2nc(NC(=O)c3ccccc3Cl)sc2c1	-20	i	-14	-10	2	3	6	-14
COc1cccc(/C(O)=C2/C(=O)C(=O)N(Cc3cccnc3)C2c2ccco2)c1 (configuration not stated)	-14	i	4	11	-2	6	18	-9
Cc1c(C(=O)OC2CCCCC2)sc2nc[nH]c(=O)c12	-29	i	-20	1	2	-1	8	-7
Cc1cnn(Cc2cccnc2)c1N	0	i	-4	-4	2	6	-2	-15
CCOC(=O)c1oc2nc(CC(C)C)c3c(c2c1N)CCCC3	4	i	1	-3	0	-4	11	1
CCOc1ccccc1NC(=O)COC(=O)COc1c(Cl)cc(Cl)c2ccc(C)nc12	0	x	-13	x	3	2	x	-3
Nc1nc(-c2ccc([N+](=O)[O-])cc2)cs1	x	i	-9	0	1	-2	-3	x
CC(C)(C)c1ccc(C(=O)NNC(=O)Cc2ccccc2)cc1	x	i	-16	-2	11	8	-2	8
COc1ccc(-c2cc(-c3n[nH]c(=S)n3-c3ccccc3Cl)[nH]n2)cc1	-12	i	x	-1	3	2	1	-10

No new results follow: an excerpt of the list.
SMILES	Env fusion inh	Rce1 inh	UUG fidelity	eIF4H inh	MT1-MMP act inh	MT1-MMP act inh RFP	PABP FP inh	CSC inhib	others
Cc1cc(COc2ccccc2OCc2cc(C)no2)on1	-36	i	-18	5	1	-1	9	-7
O=C(N/N=C/c1ccccn1)c1cccnc1	9	i	-42	2	2	5	4	2
Nc1ccc(C(=O)N/N=C/c2cn(Cc3ccccc3)c3ccccc23)cc1	13	i	12	2	1	-1	-7	3
CCOC(=O)C1=C(C)NC(C)=C(C(=O)OCC)C1c1cccs1	x	i	x	-1	1	-4	-6	14
CCCCOC(=O)/C(=C/C=C/c1ccccc1)NC(=O)c1ccccc1	-22	i	-4	-6	-3	-7	14	6
Cc1cccc(-c2nnc(SCc3cc(=O)[nH]c4ccccc34)n2C)c1	-13	i	-21	12	5	5	5	7
CC1(c2ccccc2)NC(=O)N(CCOc2ccccc2)C1=O (configuration not stated)	-40	i	-8	-7	-4	1	3	-7
O=C(CSc1n[nH]c(=O)n1Cc1ccco1)Nc1ccccc1Cl	18	i	x	-3	-1	2	9	-11
CS(=O)(=O)c1ccc2nc(NC(=O)c3ccccc3Cl)sc2c1	-20	i	-14	-10	2	3	6	-14
COc1cccc(/C(O)=C2/C(=O)C(=O)N(Cc3cccnc3)C2c2ccco2)c1 (configuration not stated)	-14	i	4	11	-2	6	18	-9
Cc1c(C(=O)OC2CCCCC2)sc2nc[nH]c(=O)c12	-29	i	-20	1	2	-1	8	-7
Cc1cnn(Cc2cccnc2)c1N	0	i	-4	-4	2	6	-2	-15
CCOC(=O)c1oc2nc(CC(C)C)c3c(c2c1N)CCCC3	4	i	1	-3	0	-4	11	1
CCOc1ccccc1NC(=O)COC(=O)COc1c(Cl)cc(Cl)c2ccc(C)nc12	0	x	-13	x	3	2	x	-3
Nc1nc(-c2ccc([N+](=O)[O-])cc2)cs1	x	i	-9	0	1	-2	-3	x
CC(C)(C)c1ccc(C(=O)NNC(=O)Cc2ccccc2)cc1	x	i	-16	-2	11	8	-2	8
COc1ccc(-c2cc(-c3n[nH]c(=S)n3-c3ccccc3Cl)[nH]n2)cc1	-12	i	x	-1	3	2	1	-10

(more compounds)
SMILES	Env fusion inh	Rce1 inh	UUG fidelity	eIF4H inh	MT1-MMP act inh	MT1-MMP act inh RFP	PABP FP inh	CSC inhib	others
Cn1c(=O)c2c(nc(N3CCCCCC3)n2CC(O)COc2ccc(Cl)cc2)n(C)c1=O (configuration not stated)	-41	i	-4	-1	-8	8	2	0
O=C(c1ccccc1Br)N1CCCC(c2nc(-c3cccs3)no2)C1 (configuration not stated)	20	i	x	-6	-1	-21	-6	-5
Cc1ccc(NC(=O)CSc2nc(N)cc(=O)[nH]2)cc1Cl	-5	i	x	0	2	-1	-10	-3
CC1CCc2c(C(=O)Nc3cccc(-c4nn[nH]n4)c3)csc2C1 (configuration not stated)	-8	i	-3	-3	-4	-3	3	-9
COCCCNc1ccn2nc(-c3ccccc3)cc2n1	63*	x	-66	x	4	1	x	x
O=C(O)CSCCOc1ccc(OCCSCC(=O)O)cc1	-16	i	x	12	-1	2	118	-6	eIF4H inh retest=0;PABP FP inh retest=0
Cc1ccc(N2CC(C(=O)OCC(=O)Nc3ccc(F)cc3F)CC2=O)cc1 (configuration not stated)	-3	x	-14	x	3	1	x	x
O=C(NCc1ccc2c(c1)OCO2)c1ccc(CSCc2cccc(Cl)c2)o1	10	i	-6	0	5	4	-8	14
Cc1ccccc1-c1cc(C(=O)NCC2CC2)nn1CC1CC(c2cccc([N+](=O)[O-])c2)=NO1 (configuration not stated)	47	x	2	x	5	2	x	7
O=C(CC1SC(N2CCOCC2)=NC1=O)Nc1ccc(F)cc1 (configuration not stated)	3	x	-23	x	-2	0	x	-13
CN(CC(=O)NC(=O)Nc1ccccc1F)Cc1ccccc1	-67	x	-25	x	1	0	x	x
COc1ccc(C(=O)NCc2c(C)nn(Cc3ccccc3)c2C)cc1S(=O)(=O)N1CCOCC1	36	x	-20	x	4	-10	x	x
CCSc1nc2ccccc2n1CC(=O)N1CCOCC1	-3	i	-6	-5	3	8	-1	-19
CCOc1ccc(CNc2ccc3c(c2)nc(C)n3C)cc1	x	x	-15	-4	7	0	-7	-20
COc1cccc(C(=O)Nc2cc3c(cc2Br)OCCCO3)c1	-62	i	0	-1	4	2	-1	-5
Cc1ccc(S(=O)(=O)N2CCN(c3cnn(C)c(=O)c3Cl)CC2)cc1	7	i	3	2	1	2	6	x
N=c1sccn1CC(=O)N1N=C(c2ccc(Cl)cc2)CC1c1ccco1 (configuration not stated)	-28	i	x	-4	-5	0	-16	9
COC(=O)c1sccc1NC(=O)Nc1cc(C)ccc1C	3	i	x	2	-3	-2	7	-7
Cc1ccc(SCC(=O)OCC(=O)N(C)C2CCS(=O)(=O)C2)cc1C (configuration not stated)	x	x	-12	x	-1	1	x	-17
CC(=O)c1ccc(NC(=O)[C@@H]2CCCN2C(=O)OC(C)(C)C)cc1	-19	i	1	14	3	4	10	-6
Cc1cc(/C=C\c2nc(O)c([N+](=O)[O-])c(=O)[nH]2)c(C)n1-c1ccccc1	0	i	x	62*	0	3	-7	-15	eIF4H inh retest=75*;PABP FP inh retest=19
Cc1oc(-c2cccc(F)c2)nc1CN1CCCCC1CCn1cccn1 (configuration not stated)	25	i	x	-5	-3	1	-10	20
CCOc1ccc2nc(NC(=O)C3=NN(c4ccccc4)C(=O)CC3)sc2c1	-13	i	x	-7	1	2	2	-2
CC1(C(=O)O)CCCN(C(=O)c2cc3ccccc3s2)C1 (configuration not stated)	-4	x	-27	x	2	5	x	x
CC(C1CC1)N(Cc1ccccc1)C(=O)NC(=O)c1ccc(F)cc1 (configuration not stated)	20	i	x	-9	-3	4	-12	-17
CC1CCC(N(C)C(=O)CN2C(=O)NC(c3ccccc3)(c3ccccc3)C2=O)CC1 (configuration not stated)	-17	x	-11	x	2	1	x	x
COC(=O)c1sc(NC(=O)CSc2nnnn2-c2ccc(C)cc2C)nc1C	x	i	8	-11	-2	1	1	-8

Only part of the results is shown; count on the stated rates, not on these rows.
